Source: PubChem
PABP polyA inh = PABP-poly(A) binding inhibition | P11940 | PABP-poly(A) RNA binding, fluorescence polarization | inhibition, % at 35 µM | 290,000 tested, 1% active;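 active = 50% or more with normal probe brightness, or confirmed in later tests; inconclusive = above 50% with abnormal brightness, or retests that disagree; inactive = below 50% or failed in later tests; about a fifth of its hits are not listed in these tables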;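 also: calls also rest on retests at 20 µM and on dose response follow-up; controls were probe without protein and protein plus probe with vehicle; some compounds called inactive have numbers as strong as hits; many hits fall short of the cut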
Target sequence (P11940 whole entry, looked up): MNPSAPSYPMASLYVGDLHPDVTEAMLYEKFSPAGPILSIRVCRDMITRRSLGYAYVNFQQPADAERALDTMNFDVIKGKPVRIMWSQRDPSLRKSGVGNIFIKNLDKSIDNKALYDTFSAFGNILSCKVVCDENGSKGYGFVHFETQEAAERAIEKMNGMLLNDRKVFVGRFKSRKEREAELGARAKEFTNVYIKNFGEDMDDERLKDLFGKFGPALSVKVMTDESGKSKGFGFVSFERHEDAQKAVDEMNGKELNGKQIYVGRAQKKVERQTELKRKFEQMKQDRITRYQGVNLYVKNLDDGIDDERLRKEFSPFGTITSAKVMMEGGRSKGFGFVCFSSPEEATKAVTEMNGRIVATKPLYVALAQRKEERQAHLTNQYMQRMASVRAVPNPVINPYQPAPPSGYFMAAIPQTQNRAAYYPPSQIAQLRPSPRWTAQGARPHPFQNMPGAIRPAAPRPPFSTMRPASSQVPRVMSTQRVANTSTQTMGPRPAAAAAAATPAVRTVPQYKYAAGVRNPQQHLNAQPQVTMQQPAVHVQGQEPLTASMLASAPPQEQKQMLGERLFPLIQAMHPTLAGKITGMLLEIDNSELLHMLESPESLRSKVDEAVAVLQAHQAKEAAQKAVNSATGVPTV
Rce1 inhib = yeast Ras-converting enzyme inhibition | yeast membranes, quenched prenylated peptide cleavage fluorescence | 290,000 tested, 0.27% active | calls only;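 active = fall in fluorescence gain of 50% or more versus controls, with final raw signal at or below 3038400; inconclusive = same 50% fall but final raw signal above 3038400; inactive = fall in fluorescence gain under 50%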;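 also: plate controls were neutral control wells for no effect and wells lacking membranes for full effect; tested at 10 µM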
Target sequence (Q03530 whole entry, looked up): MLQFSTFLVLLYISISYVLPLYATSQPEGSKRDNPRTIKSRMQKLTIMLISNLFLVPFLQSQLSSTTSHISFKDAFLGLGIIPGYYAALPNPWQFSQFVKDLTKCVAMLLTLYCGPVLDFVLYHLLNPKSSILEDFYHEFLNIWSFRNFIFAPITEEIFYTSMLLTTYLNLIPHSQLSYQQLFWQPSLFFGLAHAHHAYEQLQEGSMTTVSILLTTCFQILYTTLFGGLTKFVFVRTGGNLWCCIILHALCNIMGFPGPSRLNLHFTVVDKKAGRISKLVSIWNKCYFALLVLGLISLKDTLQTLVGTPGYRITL
Env fusion inh = blocks HIV Env-driven cell-cell fusion. inhibition, % at 12.3 µM. 360,000 tested, 1.1% active. HeLa-JRFL Env/CEM21 cell fusion, luciferase;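 active = mean replicate inhibition score of at least 50 and every replicate individually at or above 50; inconclusive = only one of the two criteria met; inactive = mean below 50 and not all replicates reaching 50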;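 also: 0% = plate neutral controls and 100% = maraviroc near 300 nM; one replicate is shown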
CSC inhib = cancer stem cell inhibition. inhibition, % at 7.5 µM. 300,000 tested, 1.1% active. cancer stem cell-like cells viability, luminescence;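 active = mean at 75% or more and at least half the replicates too; inconclusive = mean and replicates disagree; tested in HMLE shEcad cells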;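 also: 0% = median of negative and 100% = median of positive control wells; the first replicate is given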
UUG fidelity = alters start codon recognition fidelity in yeast; 350,000 tested, 0.13% active; AID 602363; S. cerevisiae UUG-firefly luciferase reporter, luminescence/redox ratio; activity score, % at 18.7 µM;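 active = replicate mean at a twofold rise or more, about +100% in these data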;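 also: firefly luciferase made from a UUG start codon reports start codon fidelity; reporter light over untreated wells divided by growth signal over untreated wells; some hits fall short of that in this replicate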
MT1-MMP act inh = MT1-MMP (human) activation inhibition; P50281; HT1080 RFP-PRO-GFP cells, GFP/RFP ratio fluorescence, overnight; percent of plate control window, DMSO zero; GFP/RFP ratio change, % at 20 µM; 360,000 tested, 0.061% active; AID 651647;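 active = GFP/RFP ratio change of at least 30% with cell ATP level not reduced by more than half and red fluorescence within 50% of control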; also: strong numbers were not always called active
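Material: RFP-PRO-GFP reporter HT1080 cells. Dosing: single-point 20 µM compound, 1% DMSO. Controls: DMSO and RFP-L50D-GFP cell wells. Timing: cells overnight before dosing, compound overnight, 37 °C, 5% CO2. Measure: GFP/RFP fluorescence ratio.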
eIF4H inh = inhibitors of RNA binding by human eIF4H; Q15056; eIF4H fluorescence polarization binding assay; inhibition, % at 35 µM; 290,000 tested, 0.94% active;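 active = 50% or more with normal probe brightness, or confirmed in later tests; inconclusive = above 50% with abnormal brightness, or retests that disagree; inactive = below 50% or failed in later tests; about a fifth of its hits are not listed in these tables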;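 also: calls also rest on retests at 20 µM and on dose response follow-up; 0% = protein and probe with vehicle and 100% = probe without protein; strong numbers were not always called active; many hits fall short of the cut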
eIF4H inh retest = recorded beside eIF4H inh, whose call it bears; inhibition, %; compound at 20 µM; confirmation average;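 mean of two retest wells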
PABP polyA inh retest = second read-out of PABP polyA inh, no call of its own (marks repeat the call); inhibition, %; compound at 20 µM; confirmation repeats;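 mean of two retest wells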
MT1-MMP act inh RFP = also measured in MT1-MMP act inh; calls as there; RFP signal change, %; measured here: RFP expression control read;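 0 = vehicle wells; hits needed this value within 50% of zero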
An asterisk follows results filed as active; i = inactive; ? = inconclusive; nt = not tested or not shown; & = joins results of further samples.

SMILES | PABP polyA inh | Rce1 inhib | Env fusion inh | CSC inhib | UUG fidelity | MT1-MMP act inh | MT1-MMP act inh RFP | eIF4H inh | others
CCOc1ccc(N(CC(=O)Nc2ccc(F)c(F)c2)S(=O)(=O)c2c(C)noc2C)cc1 | -29 | i | -8 | 10 | -22 | -2 | -3 | -12
COCCn1c(NC(=S)NC(=O)C23CC4CC(CC(C4)C2)C3)cc(=O)[nH]c1=O | -9 | i | 2 | 32 | nt | -23 | -20 | -11
Cn1c(=O)c2cc(S(=O)(=O)NC(Cc3ccccc3)C(=O)NCC3CCCO3)ccc2n(C)c1=O (stereo unspecified) | -13 | i | 2 | -22 | -9 | 0 | 6 | 5
COc1ccc(-c2nc(C#N)c(NCc3ccccc3Cl)o2)cc1 | -3 | i | 24 | nt | nt | 7 | -3 | -6
CN(C)CCN(Cc1cccs1)S(=O)(=O)c1csc(C(N)=O)c1 | -4 | i | -8 | 14 | nt | -2 | 3 | -16
O=C(CSc1nnc(-c2ccco2)o1)NC1CCCCC1 | 1 | i | -3 | -11 | -10 | -3 | 7 | -5
COCCN1C(=O)c2ccccc2C(C(=O)N2CCN(c3ccccc3)CC2)C1c1ccc(F)cc1 (stereo unspecified) | -4 | i | -145 | -9 | -4 | -3 | -3 | -7
COc1ccc(CC(=O)Nc2cc(=O)n(C)c(=O)n2C)cc1OC | -2 | i | -16 | -11 | nt | 2 | 0 | -9
CC1(C)CC(=O)C(C=NCC2CCN(C(=O)Cc3ccccc3)CC2)=C(O)C1 | -14 | i | -7 | -9 | -6 | -1 | -3 | 2
CC1CCCN(S(=O)(=O)c2ccc(C(=O)Nc3nnc(C4CC4)o3)cc2)C1 (stereo unspecified) | -6 | i | 6 | 27 | -23 | 3 | -1 | 6
COc1cc(/C=C/C(=O)N2CCN(CC(O)COc3ccccc3)CC2)cc(OC)c1OC (stereo unspecified) | 2 | i | nt | -40 | -2 | 5 | 2 | -1
CC(C)NC(=O)N(C)C[C@H]1Oc2ccc(NS(=O)(=O)c3ccc(F)cc3)cc2C(=O)N([C@H](C)CO)C[C@@H]1C | nt | nt | 14 | nt | -11&-11 | -1 | -2 | nt
CN1CCN(c2ccc(Cl)cc2NC(=O)c2nn(-c3ccccc3)c(=O)c3ccccc23)CC1 | -13 | i | nt | nt | -7 | -2 | -1 | 13
N#CC(CC(=O)c1ccc(F)cc1)c1ccc2c(c1)OCO2 (stereo unspecified) | 1 | i | -1 | 12 | -30 | 1 | 1 | -3
CCCCCCn1cc(C(=O)OCC)c(=O)c2cc(F)c(F)cc21 | 1 | i | -11 | -4 | nt | -3 | 3 | 5
N/C(=N\OC(=O)c1ccc(Cl)c(Cl)c1)c1cccc(CSc2ccccn2)c1 | -4 | i | -9 | 4 | nt | 1 | -4 | -9
CCCC(=O)N1CC(=O)Nc2ccc(Br)cc2C1c1ccc(F)cc1 (stereo unspecified) | -9 | i | 8 | -6 | 0 | 0 | 0 | 8
Cc1ccc(S(=O)(=O)N2CCc3ccccc3C2CC(=O)O)cc1 (stereo unspecified) | 2 | i | 5 | 21 | nt | 1 | 0 | 0
N#C/C(=C\c1ccc(C(=O)O)cc1)c1nc2sc3c(c2c(=O)[nH]1)CCCC3 | ? | nt | -13 | nt | nt | -110 | 11 | ?
COc1ccc([N+](=O)[O-])cc1C(=O)NC1CCN(Cc2ccccc2)CC1 | nt | i | 6 | -4 | -11 | 4 | -10 | nt
Cc1cccc(Oc2ccc(Cl)cc2N)c1 | ? | i | -15 | -2 | -6 | -1 | 1 | -15
CCOC(=O)C1C(=O)NC(c2ccccc2)=NC1c1cccc(Br)c1 (stereo unspecified) | 5 | i | 24 | -11 | nt | -3 | -1 | 13
Fc1ccccc1C(c1nnnn1C1CCCC1)N1CCN(Cc2ccccc2)CC1 (stereo unspecified) | -3 | i | nt | 4 | -12 | -6 | -6 | -5
CCCOC(=O)c1cccc(NC(=O)C(C)(C)C)c1 | 4 | i | -37 | -8 | -14 | 1 | 3 | -4
Cc1cccc(CN2C(=O)c3ccccc3Sc3ccc(C(=O)O)cc32)c1 | 6 | i | 5 | -15 | -12 | -1 | 5 | -7
COc1ccccc1CNC(=O)COC(=O)c1ccc(C)s1 | nt | nt | nt | 5 | -6 | -1 | 2 | nt
COc1ccc(C(=O)OCC(=O)NC2CC2)cc1F | nt | nt | -6 | -10 | 0 | 6 | 0 | nt
O=C(O)/C=C/c1cccc(NS(=O)(=O)c2ccccc2)c1 | -9 | i | nt | -4 | 10 | -2 | 2 | -6
Cn1nnnc1SCC(=O)N(C1CCCCC1)C1CCS(=O)(=O)C1 (stereo unspecified) | 5 | i | 17 | -36 | nt | -1 | 3 | -7
CC(C)n1c(NCc2ccc(Cl)cc2)nc2ccccc21 | 2 | i | 22 | -9 | nt | 4 | -2 | -2
COc1ccc(NC(=O)CCNS(=O)(=O)c2ccc(NC(C)=O)cc2)cc1Cl | 6 | i | -14 | -16 | -10 | 0 | 1 | 1
CCOc1ccc(NC(=O)CSc2nc3ccsc3c(=O)n2CCCCCC(=O)O)cc1 | nt | nt | -5 | nt | -20 | 0 | -2 | nt
CC(C)COc1ccc(C(=O)N2C(=O)c3ccc(N)cc3C2=O)cc1 | 4 | nt | 15 | -6 | -17 | 1 | 0 | -2
COc1cc(C)ccc1OCCCCN1CC(C)OC(C)C1 (stereo unspecified) | 14 | i | -43 | -5 | 2 | 6 | 0 | 5
CCN(C1CCCCC1)S(=O)(=O)c1c(C)n(C)c(=O)n(C)c1=O | nt | i | 3 | -6 | -1 | -4 | -2 | nt
NC(=O)CC(NC(=O)c1ccccc1)c1ccc(N2CCC(Br)CC2)c([N+](=O)[O-])c1 (stereo unspecified) | 14 | i | 32 | 5 | -19 | 2 | -24 | 5
CC1CCC(NC(=O)C(NS(=O)(=O)c2cccc3nsnc23)C(C)C)CC1 (stereo unspecified) | 1 | i | 1 | -5 | -1 | -5 | 0 | -3
N#Cc1cnc(NN)nc1 | 14 | i | 16 | 13 | nt | 4 | 2 | 4
Cc1ccc(NC(=O)CN(CCc2ccccc2)S(C)(=O)=O)cc1 | 13 | i | 3 | nt | 4 | 4 | -1 | -2
CCCn1c(N)c(N(CCOC)C(=O)c2cc(-c3ccco3)nc3ccccc23)c(=O)[nH]c1=O | 23 | i | -6 | nt | -15 | 4 | 4 | 59* | eIF4H inh retest=77*;PABP polyA inh retest=43
Oc1cccc(/C=N/Nc2ccc(Cl)nn2)c1 | 20 | i | -33 | -12 | -22 | 1 | 2 | 4
COc1ccc(C(OC(=O)c2ccco2)C(=O)NCc2ccco2)cc1 (stereo unspecified) | -9 | i | -75 | -8 | -11 | 0 | 4 | 0
Cc1cccc(-c2noc(CNC(=O)Nc3ccc(F)cc3)n2)c1 | -6 | i | 15 | 10 | nt | 4 | 0 | 7
COc1ccc(CNCC(C)NCc2ccc(OC)c(OC)c2)cc1OC (stereo unspecified) | 12 | i | -25 | -11 | -13 | 5 | 4 | -3
CCN(CC)c1ccc(C(=O)n2cnc3ccccc32)cc1 | 8 | i | nt | 16 | -26 | -5 | -5 | -10
Cc1cc(Nc2ccccc2)cc(=O)n1C | nt | i | -9 | 10 | -5 | 0 | 1 | nt
NC(=O)NC(=O)C[n+]1cccc(/C=N/O)c1 | 10 | i | 8 | -3 | nt | 2 | 5 | 2
CCOC(=O)C1CCN(C(=O)C2CCCN(S(=O)(=O)c3ccc(OCC)c(Cl)c3)C2)CC1 (stereo unspecified) | nt | i | nt | 5 | 8 | -8 | -26 | nt
O=S(=O)(NCc1nc(-c2ccccc2)no1)c1ccc(F)cc1 | -3 | i | -9 | -2 | 30 | 3 | 3 | -5
COc1ccc(CN2C(=O)c3ccccc3C2C(=O)NCc2cccnc2)c(OC)c1 (stereo unspecified) | 5 | i | nt | nt | nt | 2 | 4 | -8
Cc1ccccc1C(=O)NC(=S)NC1CCSC1=O (stereo unspecified) | 6 | i | -3 | -4 | nt | 0 | 4 | 2
S=C1NCN(Cc2ccco2)CN1CCc1ccccc1 | -1 | i | 14 | 17 | -24 | 1 | -4 | 5
O=C(Nc1ccc2nc(C(F)(F)F)[nH]c2c1)[C@@H]1O[C@H](CO)[C@@H](O)[C@H]1O | nt | nt | 22 | nt | 15 | -3 | 3 | nt
Cc1nc2ccccc2c(N)c1C(=O)/C=C/c1ccccc1 | 1 | i | -19 | 45 | 2 | 7 | -11 | -7
COc1ccc(C(N)c2csc(Nc3ccc(C(F)(F)F)cn3)n2)cc1 (stereo unspecified) | nt | nt | 1 | nt | 26 | -7 | 1 | nt
COc1ccc(CCNC(=O)C2CCN(S(=O)(=O)N3CCC4(CC3)OCCO4)CC2)cc1OC | -7 | i | -11 | 6 | -1 | -1 | 2 | -10
Cc1cc(O)c2c(c1)C(O)(C1OC(CO)C(O)C(O)C1O)c1cccc(O)c1C2=O (stereo unspecified) | 9 | i | 0 | 4 | 4 | 1 | 5 | 7
Cc1ccccc1C(=O)NNC(=S)NC(=O)c1cccs1 | -5 | i | 5 | 2 | -29 | 0 | 4 | 7
CCCC1O[C@@H]2C[C@H]3[C@@H]4CCC5=CC(=O)C=C[C@]5(C)[C@H]4[C@@H](O)C[C@]3(C)[C@]2(C(=O)CO)O1 (stereo partly specified) | 2 | i | i | -11 | 2 | -26 | -24 | -13
Cc1ccc2nc3c(nc2c1C)C(O)=C3O | 1 | i | -9 | 43 | -35 | 8 | 8 | 5

Four structures already listed, arranged by number of heavy atoms, ascending:
SMILES | PABP polyA inh | Rce1 inhib | Env fusion inh | CSC inhib | UUG fidelity | MT1-MMP act inh | MT1-MMP act inh RFP | eIF4H inh | others
Cc1ccc2nc3c(nc2c1C)C(O)=C3O | 1 | i | -9 | 43 | -35 | 8 | 8 | 5
Cc1ccccc1C(=O)NNC(=S)NC(=O)c1cccs1 | -5 | i | 5 | 2 | -29 | 0 | 4 | 7
COc1ccc(C(N)c2csc(Nc3ccc(C(F)(F)F)cn3)n2)cc1 (stereo unspecified) | nt | nt | 1 | nt | 26 | -7 | 1 | nt
Cc1cc(O)c2c(c1)C(O)(C1OC(CO)C(O)C(O)C1O)c1cccc(O)c1C2=O (stereo unspecified) | 9 | i | 0 | 4 | 4 | 1 | 5 | 7

Next part.
SMILES | PABP polyA inh | Rce1 inhib | Env fusion inh | CSC inhib | UUG fidelity | MT1-MMP act inh | MT1-MMP act inh RFP | eIF4H inh | others
COc1ccc(C2=CC(=O)CC(c3ccc(F)cc3)C2)cc1 (stereo unspecified) | nt | i | 3 | 51 | 3 | 7 | 2 | nt
O=C(CN1CCCCC1)NCCNC(=O)CN1CCCCC1 | 18 | i | -177 | 2 | -11 | 1 | 1 | 3
Cc1ccc(C)c(NC(=S)NNC(=S)Nc2ccc(C(C)C)cc2)c1 | 11 | i | -67 | 102* | -6 | 3 | -3 | 17
CCOC(=O)N1CCC(NC(=O)c2cc(S(=O)(=O)N3CCCC3)cn2C)CC1 | -6 | i | -53 | 0 | 3 | -2 | 0 | 1
COc1ccc(C)cc1-n1nnnc1SCC(=O)N1CCC(C(=O)Nc2nccs2)CC1 | -10 | i | -26 | -12 | -10 | 0 | -3 | 0
Cc1ccc(CC(CC(=O)O)C(=O)Nc2ccc(Cl)cc2)cc1 (stereo unspecified) | -16 | i | -35 | -19 | 6 | -4 | 2 | 6
